Bioassay records as filed in PubChem.
Six1-Eya2 blk: inhibitors of human Six1/Eya2 interaction; 360,000 tested, 0.56% active; Q15475+O00167; AlphaScreen GST-Six1/His-Eya2 binding, biochemical; stronger effect = lower value; control for the full effect not named in the record; activity change, % (no concentration beside the values); in the data active = activity change below about -65%; inconclusive = about -30% to -65%; inactive = above about -30%; further: on the % scale 0 is the no-effect control and ±100 the full control effect; compound concentration not given in the record
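AlphaScreen luminescence read after one hour at 37 °C in darkness. Pin-transferred compounds met GST-Six1 and His-Eya2 protein (5X stock 250 nM/500 nM) plus glutathione donor and Ni-chelate acceptor beads (5X, 50 ug/mL).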
D2 agonist: human D2 receptor agonism in beta-arrestin assay | P14416 | DiscoveRx PathHunter D2 beta-arrestin, luminescence, 90 min; 100% = 57 uM dopamine signal | activation, % (no concentration beside the values) | 360,000 tested, 0.084% active; in the data active = activation above about 40%; inconclusive = about 15% to 40%; inactive = below about 15%; further: compound concentration not given in the record; the text of the record calls up to 30% inactive
Target sequence (P14416 whole entry, looked up): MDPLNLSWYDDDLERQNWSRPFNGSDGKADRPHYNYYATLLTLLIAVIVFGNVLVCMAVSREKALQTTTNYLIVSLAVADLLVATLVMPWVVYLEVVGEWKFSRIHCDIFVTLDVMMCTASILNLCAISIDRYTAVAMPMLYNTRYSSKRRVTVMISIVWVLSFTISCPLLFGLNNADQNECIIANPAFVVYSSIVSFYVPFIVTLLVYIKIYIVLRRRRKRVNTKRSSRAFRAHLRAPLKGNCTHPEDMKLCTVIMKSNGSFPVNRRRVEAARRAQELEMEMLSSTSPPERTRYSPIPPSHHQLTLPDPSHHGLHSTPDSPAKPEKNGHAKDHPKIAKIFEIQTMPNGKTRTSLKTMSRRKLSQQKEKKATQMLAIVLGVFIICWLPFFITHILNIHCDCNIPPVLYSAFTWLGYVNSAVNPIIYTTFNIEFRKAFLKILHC
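Agonist mode: compounds alone added to overnight-plated D2 PathHunter cells for 90 min at 37 C, with 57 uM final dopamine (EC100) defining full response. Beta-arrestin recruitment detected by chemiluminescent reagent, read after 1 h at ambient temperature.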
CtBP-E1A blk: CtBP/E1A binding inhibition. AlphaScreen GST-E1A/His-CtBP binding, 1536-well; stronger effect = lower value; control for the full effect not named in the record. AID 651724. 340,000 tested, 0.49% active. activity change, % (concentration not given with the values); in the data active means activity change below about -65%; inconclusive means about -30% to -65%; inactive means above about -30%; further: on the % scale 0 is the no-effect control and ±100 the full control effect
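In 5 uL wells, 23 nL compound meets equimolar GST-E1A and His-CtBP (5X stock 125 nM each) for 2 h, 37 °C. Beads (5X, 50 ug/mL) then 1 h, 37 °C, dark.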
PINK1 modulator: PINK1 expression modulation | PINK1 immunofluorescence, high-content cytometry, 24 h | Potency, µM (series often up to 76.6 µM), for inactives: at the highest dose activation (PINK1 increase), usual class: activators | 410,000 tested, 0.2% active; active = well fitted activation curve with a large enough effect; inconclusive = small, poorly fitted or top-dose-only effect; inactive = flat fitted curve, though single readings scatter; cell line not stated here;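 further: potency means the concentration at half of the fitted maximal effect; % of control where 0% means no effect; nearly all actives have a fitted effect of over 65% in size; a mitochondrial uncoupler was the plate control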
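Decision-based qHTS: stable cells, 24 h exposure to five compound concentrations, CCCP as control. Fixed cells stained for PINK1 plus nuclear, mitochondrial and cell markers, cytometer read.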
D2 potentiator: potentiates the human D2 dopamine receptor allosterically; DiscoveRx D2 beta-arrestin cells, luminescence, 90 min; 100% = 57 uM dopamine signal; potentiation, % (test concentration not listed); 360,000 tested, 0.23% active; AID 624464; active = potentiation of 50% or more; inconclusive = 30% to 50%; inactive = 30% or less;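 further: compound concentration not given in the record; tested on top of an EC20 dose of dopamine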
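D2 cells co-treated with compound plus 50 nM dopamine (EC20) for 90 min at 37 deg C to detect potentiation. Beta-arrestin recruitment was read as enzyme-fragment luminescence after 1 h at ambient temperature. Full response was set by 57 uM dopamine.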
TRPML1 agonist: activates the human TRPML1 channel; 410,000 tested, 0.12% active; activation, % (concentration not given with the values); TRPML1-expressing cells, Ca2+ dye fluorescence, FDSS; host cell line not named in the record; reference of the full effect not given here; Q9GZU1; in the data active = activation above about 50%; inconclusive = about 30% to 50%; inactive = below about 30%; further: 0% is about no effect; the text of the record puts the active cut at 80%
Target sequence (Q9GZU1 whole entry, looked up): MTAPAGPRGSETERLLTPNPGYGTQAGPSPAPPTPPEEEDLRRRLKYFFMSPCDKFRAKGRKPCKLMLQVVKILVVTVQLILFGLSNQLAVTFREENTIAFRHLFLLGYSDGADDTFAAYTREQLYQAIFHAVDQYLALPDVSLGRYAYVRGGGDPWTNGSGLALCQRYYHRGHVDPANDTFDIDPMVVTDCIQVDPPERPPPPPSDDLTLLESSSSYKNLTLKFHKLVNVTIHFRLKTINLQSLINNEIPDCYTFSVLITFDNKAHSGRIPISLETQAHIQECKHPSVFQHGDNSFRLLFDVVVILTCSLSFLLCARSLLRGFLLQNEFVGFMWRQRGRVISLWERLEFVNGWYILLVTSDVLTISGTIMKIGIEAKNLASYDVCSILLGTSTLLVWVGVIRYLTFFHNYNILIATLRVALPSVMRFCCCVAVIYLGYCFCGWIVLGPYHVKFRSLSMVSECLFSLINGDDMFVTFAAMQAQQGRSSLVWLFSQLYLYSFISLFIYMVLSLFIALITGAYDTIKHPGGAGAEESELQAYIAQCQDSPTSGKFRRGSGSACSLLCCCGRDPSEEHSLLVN
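Tetracycline-induced TRPML1-DL cells are seeded and incubated overnight before loading with a no-wash Ca2+ dye and quencher. Agonist activity is taken from the 110 s fluorescence read following compound pin-transfer on an FDSS, before EC80 54-4 challenge.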
Active calls of the source: *; ? = inconclusive; . = not tested or not shown; [ ] = remark or other dose.

Every second line gives: Six1-Eya2 blk	D2 agonist	CtBP-E1A blk	PINK1 modulator	D2 potentiator	TRPML1 agonist
- O=C(NCCN1CCOCC1)c1ccc2c(c1)N(Cc1ccccc1)C(=O)CS2
    1.8	-0.3	1.7	2.6%[38.3 µM]	-8.6	1.5
- CC/C(=N/Nc1ccccc1)c1cnnc(SC)n1
    -6.6	-4.0	-24.5	0.8%	-12.1	1.6
- CCOc1cc(N2CCOCC2)c(OCC)cc1NC(=O)c1oc2ccccc2c1C
    -9.6	4.9	0.0	1.7%	5.6	-0.7
- CC(C)c1nnc(NC(=O)c2sc3ccccc3c2Cl)s1
    -6.2	1.1	-3.2	-0.8%	1.7	-0.5
- Cc1cccc(OCC(=O)OCC(=O)Nc2ccc(Cl)cn2)c1
    1.4	-4.2	5.4	0.8%	-2.7	1.6
- COc1cc(/C=C/C2=CC(C)(C)NC(=S)N2)cc(OC)c1OC
    -5.9	2.2	-1.0	3.0%	-5.8	-0.5
- COc1ccc(Cn2cccc(NC(=O)Nc3cccc(C#N)c3)c2=O)cc1
    -0.2	-0.2	-8.4	-2.6%	5.8	-1.0
- C=CCOc1ccccc1CN1CCN(CCc2ccccc2)C(CCO)C1 (stereo not drawn)
    -0.9	-1.5	0.4	-1.2%	-15.3	-0.6
- O=C(CCc1c[nH]c2ccccc12)NN1C(=O)NC2(CCCCC2)C1=O
    13.8	-1.8	0.0	1.2%	-1.9	-0.3
- CC(O)[C@H]1CN=C(N)N1CC1CCCCC1 (stereo partly drawn)
    1.3	-2.8	3.6	0.7%	-5.4	-0.1

Two neighbouring compounds out of the list so far, for reference:
Every second line gives: Six1-Eya2 blk	D2 agonist	CtBP-E1A blk	PINK1 modulator	D2 potentiator	TRPML1 agonist
- O=C(NCCN1CCOCC1)c1ccc2c(c1)N(Cc1ccccc1)C(=O)CS2
    1.8	-0.3	1.7	2.6%[38.3 µM]	-8.6	1.5
- CC/C(=N/Nc1ccccc1)c1cnnc(SC)n1
    -6.6	-4.0	-24.5	0.8%	-12.1	1.6

The listing continues.
Every second line gives: Six1-Eya2 blk	D2 agonist	CtBP-E1A blk	PINK1 modulator	D2 potentiator	TRPML1 agonist
- COc1ccc(OC(=O)c2ccc(Cl)cc2)c(C(C)=O)c1
    0.6	-0.9	-0.9	-2.8%	-9.3	1.9
- Cc1ccc(C(=O)O)cc1S(=O)(=O)NCC1CCCO1 (stereo not drawn)
    6.3	-2.0	5.4	16.5%[38.3 µM]	-6.3	1.0
- Cn1nc2c3ccccc3n(Cc3ccc(F)cc3)c2nc1=S
    -7.6	3.1	.	0.2%	-3.5	0.4
- Cc1ccc(S(=O)(=O)N(C)C[C@@H]2OCc3cnnn3CCCC(=O)N([C@@H](C)CO)C[C@H]2C)cc1
    12.0	-3.6	13.1	2.3%	2.1	-0.3
- CC(=O)N1CCc2cc(S(=O)(=O)NC(CC(C)C)C(=O)N3CCn4c3nc3ccccc34)ccc21 (stereo not drawn)
    0.4	-4.7	0.9	-10.3%[38.3 µM]	-7.7	3.0
- CC(=O)c1sc(NC(=O)CSC(C)C(=O)Nc2cc(C)on2)nc1-c1ccccc1 (stereo not drawn)
    -2.7	2.5	10.9	-1.8%	-2.1	0.1
- CCCCN(C)CCN1C(=O)C2C(C(=O)Nc3ccc(Cl)cc3)C3C=CC2(O3)C1C(=O)NC1CCCCC1 (stereo not drawn)
    1.4	-0.5	1.7	3.7%	-14.1	-0.3
- O=C(CN1C(=O)C(=O)N(CCC2=CCCCC2)C1=O)Nc1ccc(F)cc1F
    3.7	-3.3	5.4	?	-13.3	1.6
- Cc1cc(Br)cc(C)c1OCC(=O)NNC(=O)c1cccs1
    0.1	-0.7	-0.3	1.5%	-8.7	0.2
- Cc1cc(Nc2ccc([N+](=O)[O-])cc2)nc2ccccc12
    -3.1	-3.2	-11.6	2.6%	-0.5	-0.3

Filtered by structure: those above with two or more sulfur atoms (two)
Every second line gives: Six1-Eya2 blk	D2 agonist	CtBP-E1A blk	PINK1 modulator	D2 potentiator	TRPML1 agonist
- CC(C)c1nnc(NC(=O)c2sc3ccccc3c2Cl)s1
    -6.2	1.1	-3.2	-0.8%	1.7	-0.5
- CC(=O)c1sc(NC(=O)CSC(C)C(=O)Nc2cc(C)on2)nc1-c1ccccc1 (stereo not drawn)
    -2.7	2.5	10.9	-1.8%	-2.1	0.1

Continuation:
Every second line gives: Six1-Eya2 blk	D2 agonist	CtBP-E1A blk	PINK1 modulator	D2 potentiator	TRPML1 agonist
- Cc1cc(C)cc(C(=O)Nc2cccnc2)c1
    -2.2	2.3	5.7	0.1%	-1.1	-0.4
- Cc1ccc(CNC(=O)C2CC(c3ccccc3C(F)(F)F)=NO2)cc1 (stereo not drawn)
    -0.1	-0.8	4.6	0.4%	-3.5	1.0
- COc1ccc([N+](=O)[O-])cc1Nc1ncnc2ccccc12
    9.2	-5.5	7.7	1.5%	-4.3	2.4
- Cc1oc(C(N)=O)cc1COc1ccc(C(N)=O)cc1
    9.6	-0.1	4.2	0.0%	-2.2	-0.3
- CC1(C)Cc2c(c(-c3ccccc3Cl)[nH]c(=O)c2C#N)CO1
    0.6	0.4	7.1	0.7%	0.8	-0.1
- CCC(=O)N(C)C[C@H]1Oc2cc(-c3ccccc3F)ccc2S(=O)(=O)N([C@H](C)CO)C[C@H]1C
    3.9	-6.0	2.1	1.0%	-0.8	0.1
- CCOC(=O)C1=C(N)OC2=C(C(=O)CC(C)(C)C2)C1C1CCCCC1 (stereo not drawn)
    -11.0	-1.2	2.4	6.1%	4.1	-0.7
- COc1ccccc1N1CCN(C2CCCN(Cc3ccc(Cl)cc3)C2)CC1 (stereo not drawn)
    -6.9	0.1	-20.0	2.0%	-25.2	0.2
- CCCNC(=O)C1(C)CCN(Cc2cccc(OC(=O)c3ccccc3)c2)C1 (stereo not drawn)
    ?	-7.1	-12.2	-0.3%	-13.8	-0.3
- Cc1ccc(C)c(/C=N/Nc2nc3ccccc3c(=O)n2O)c1
    3.9	-5.1	-2.3	0.8%	-7.5	-0.5
- C(=N\Nc1nc2ccccc2s1)/c1cccs1
    -7.8	0.6	0.0	-2.3%[38.3 µM]	3.2	1.2
- COc1ccc(CC(=O)NCc2cccc(CNC(=O)Cc3ccc(OC)c(OC)c3)c2)cc1OC
    -0.8	-2.6	-1.4	0.1%	0.2	0.2
- O=C(NCc1ccco1)C(c1ccncc1)N(C(=O)Cn1nnc2ccccc21)c1ccccc1F (stereo not drawn)
    -10.3	-3.5	-6.4	-0.5%	-6.7	0.2
- O=C(CSc1ncn[nH]1)N1N=C2/C(=C/c3ccco3)CCCC2C1c1ccco1 (stereo not drawn)
    -10.8	-1.3	-16.8	19.8%[38.3 µM]	-4.8	0.6
- Cc1ccc(C)c(/C=N/NC(=S)NC(C)C)c1
    6.3	0.7	0.6	3.8%	-10.7	2.0
- Cc1nc2ccc(C(=O)NCCc3c[nH]c4ccccc34)cn2c1N(C)C(=O)CCc1ccccc1
    -5.4	8.2	-10.4	1.3%	-2.7	-0.4
- O=C(c1ccc(Sc2ccccc2)c([N+](=O)[O-])c1)N1CCOCC1
    -2.6	-1.8	.	-0.3%	-8.9	-0.3
- C=CCn1cnc2c(c1=O)c1nc3ccccc3nc1n2/N=C/c1cccc(OC)c1OC
    -21.4	-1.2	?	3.9%[38.3 µM]	2.2	-0.5
- NS(=O)(=O)c1ccc(CCNC(=O)c2cccc(OC(F)F)c2)cc1
    0.4	-1.4	9.6	0.2%	-6.5	-0.9
- COc1cccc(-c2cnc3c(NC=O)cc(-c4ccc(S(C)(=O)=O)cc4)cn23)c1
    -2.7	13.0	-1.9	0.6%	9.3	-0.9
- O=C(Cc1ccccc1)NNC(=O)c1ccc(NC(=O)c2ccccc2)cc1
    1.5	2.7	0.9	0.1%	-5.9	1.6
- COc1ccccc1CNCc1cc(Br)ccc1OC
    -1.1	-2.7	-2.0	2.9%	-12.7	-0.7
- COc1ccc(-c2csc(NC(=O)Cc3ccccc3)n2)cc1OC
    3.7	9.1	.	1.4%	2.7	1.5
- COc1ccc(S(=O)(=O)N(CCCN2CCOCC2)Cc2cccc3ccccc23)cc1
    -2.3	-1.7	-14.3	-2.3%	-37.9	1.3
- O=C1OC(COc2ccc(Br)cc2)CN1c1ccccc1 (stereo not drawn)
    2.8	-3.1	3.1	3.9%	-7.7	-0.7
- O=C(NCCN1CCOCC1)c1c(O)nc2sccn2c1=O
    3.8	-2.0	-3.5	-1.7%	-2.2	-0.2
- O=C1CC(c2ccccc2)C(c2ccccc2)=NN1 (stereo not drawn)
    -0.2	-1.6	5.9	-1.5%	-6.7	0.9
- Cn1c(C=O)c(-c2ccc3cc[nH]c3c2)c2ccccc21
    12.4	1.1	.	1.0%	-7.0	-0.6
- CCN(CC)C(=O)Cn1nc(C)c2ccccc2c1=O
    0.0	-3.7	1.4	0.5%	-6.2	-0.4
- COc1cccc2c1Oc1ncccc1N(C(=O)CCC(=O)NCc1ccccc1)C2
    4.3	-2.6	.	-0.1%	-7.1	0.7
- COc1cccc(N2CC(C(=O)Nc3nnc(SCC(=O)NCc4ccco4)s3)CC2=O)c1 (stereo not drawn)
    -15.9	-1.6	-18.0	0.0%	-8.8	0.8
- CN(Cc1ccccc1)C(=O)c1cccc(NC(=O)Cc2cccc(NC(=O)C3CCN(C(=O)C4CC4)CC3)c2)c1
    -4.9	-2.3	0.0	0.7%	-8.7	0.4
- NC(=O)c1cccc(-c2ccnc3c2CC(C(=O)Nc2cccc(Oc4ccccc4)c2)O3)c1 (stereo not drawn)
    -9.0	-3.3	-16.2	-0.7%	-2.9	-0.2
- CCOC1=C2[C@H](c3ccc(CC)cc3)N(S(=O)(=O)c3ccc(C)cc3)C[C@H]2C(C#N)(C#N)C(C#N)(C#N)C1
    -0.3	-4.4	5.0	5.1%	-6.5	-0.2
- CCOC(=O)C1CCN(c2ncnc3c2nnn3Cc2ccccc2Cl)CC1
    2.5	-0.8	0.0	3.6%	-0.8	3.5
- FC(F)(F)c1cccc(NC(=S)NCCN2CCOCC2)c1
    8.7	-3.6	5.3	0.9%	-20.2	0.4
- Cc1c(C=O)c2cc(OCc3ccccc3)ccc2n1C
    2.0	9.6	-0.3	1.4%	-5.7	0.8
- CC1Sc2ccc(S(=O)(=O)N3CCC(C(=O)Nc4ccc(Cl)cc4)CC3)cc2NC1=O (stereo not drawn)
    -0.8	12.6	.	?	-13.1	2.7
- CCCCCCn1c(=O)[nH]c2nc3cc(N)ccc3nc2c1=O
    ?	5.9	?	5.5%	59.9*	50.8*
- NC(=O)c1nsc(C(=O)N(CC(=O)NCc2ccc(F)cc2)Cc2ccco2)c1N
    -1.0	-2.8	-14.9	9.2%	-8.2	-0.3
- COC(=O)c1ccc(C(=O)OC)c(NC(=O)CSc2nnc(-c3ccccc3Cl)o2)c1
    -13.2	-2.4	-1.4	1.0%	-35.8	1.8
- CC(=O)Nc1ccc(C=NNC(=O)CCCC(=O)NN=Cc2ccc(NC(C)=O)cc2)cc1
    1.8	0.4	-1.0	0.7%	-4.5	0.2
- C/C(=N\NC(=O)c1nnn(-c2nonc2N)c1CSc1ccccc1)c1ccco1
    5.0	-1.5	.	11.2%	-10.4	-1.0
- COC(=O)CC1COc2ccccc2N1C(=O)/C=C/c1ccccc1 (stereo not drawn)
    0.8	-0.8	.	-0.5%	-4.9	2.5
- CCOC(=O)C1CCCN(Cc2ccccc2C)C1 (stereo not drawn)
    5.3	-1.3	19.3	2.0%[38.3 µM]	-16.8	1.0
